eIF4H inh: inhibitors of RNA binding by human eIF4H | Q15056 | eIF4H fluorescence polarization binding assay | inhibition, % at 35 µM | 290,000 compounds, 0.94% hits | AID 2012;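 active = 50% or more with normal probe brightness, or confirmed in later tests; inconclusive = above 50% with abnormal brightness, or retests that disagree; inactive = below 50% or failed in later tests; about a fifth of its hits are not listed in these tables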;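 note: calls also rest on retests at 20 µM and on dose response follow-up; 0% = protein and probe with vehicle and 100% = probe without protein; strong numbers were not always called active; many hits fall short of the cut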
Rce1 inh: yeast Ras-converting enzyme inhibition; Q03530; yeast membranes, quenched prenylated peptide cleavage fluorescence; calls only; 290,000 compounds, 0.27% hits; AID 2563;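 active = fall in fluorescence gain of 50% or more versus controls, with final raw signal at or below 3038400; inconclusive = same 50% fall but final raw signal above 3038400; inactive = fall in fluorescence gain under 50%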;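 note: plate controls were neutral control wells for no effect and wells lacking membranes for full effect; tested at 10 µM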
Target sequence (Q03530 whole entry, looked up): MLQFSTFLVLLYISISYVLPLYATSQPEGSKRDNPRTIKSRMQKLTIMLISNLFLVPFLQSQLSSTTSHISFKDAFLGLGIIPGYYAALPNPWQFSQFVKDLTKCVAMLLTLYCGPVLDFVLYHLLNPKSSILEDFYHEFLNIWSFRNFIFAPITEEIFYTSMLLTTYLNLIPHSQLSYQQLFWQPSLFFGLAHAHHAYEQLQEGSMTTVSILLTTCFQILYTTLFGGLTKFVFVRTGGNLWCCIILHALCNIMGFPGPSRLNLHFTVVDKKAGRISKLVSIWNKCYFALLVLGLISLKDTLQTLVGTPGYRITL
HIV Env fusion: blocks HIV Env-driven cell-cell fusion. HeLa-JRFL Env/CEM21 cell fusion, luciferase. inhibition, % at 12.3 µM. 360,000 compounds, 1.1% hits;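 active = mean replicate inhibition score of at least 50 and every replicate individually at or above 50; inconclusive = only one of the two criteria met; inactive = mean below 50 and not all replicates reaching 50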;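 note: 0% = plate neutral controls and 100% = maraviroc near 300 nM; one replicate is shown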
PABP FP inh: PABP-poly(A) binding inhibition | PABP-poly(A) RNA binding, fluorescence polarization | inhibition, % at 35 µM | AID 2014 | 290,000 compounds, 1% hits | P11940;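 active = 50% or more with normal probe brightness, or confirmed in later tests; inconclusive = above 50% with abnormal brightness, or retests that disagree; inactive = below 50% or failed in later tests; about a fifth of its hits are not listed in these tables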;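 note: calls also rest on retests at 20 µM and on dose response follow-up; controls were probe without protein and protein plus probe with vehicle; some compounds called inactive have numbers as strong as hits; many hits fall short of the cut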
UUG fidelity: alters start codon recognition fidelity in yeast; S. cerevisiae UUG-firefly luciferase reporter, luminescence/redox ratio; activity score, % at 18.7 µM; 350,000 compounds, 0.13% hits;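 active = replicate mean at a twofold rise or more, about +100% in these data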;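 note: firefly luciferase made from a UUG start codon reports start codon fidelity; reporter light over untreated wells divided by growth signal over untreated wells; some hits fall short of that in this replicate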
MT1-MMP act inh: blocks activation of human MT1-MMP; GFP/RFP ratio change, % at 20 µM; AID 651647; 360,000 compounds, 0.061% hits; P50281; HT1080 RFP-PRO-GFP cells, GFP/RFP ratio fluorescence, overnight; percent of plate control window, DMSO zero;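 active = GFP/RFP ratio change of at least 30% with cell ATP level not reduced by more than half and red fluorescence within 50% of control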; note: strong numbers were not always called active
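system = RFP-PRO-GFP reporter HT1080 cells | dosing = 20 µM single dose, 1% DMSO | timing = overnight cell settling, then overnight compound exposure, 37 °C, 5% CO2 | read-out basis = GFP/RFP fluorescence ratio | controls = DMSO and RFP-L50D-GFP cell wells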
CSC inhib: blocks cancer stem cells. cancer stem cell-like cells viability, luminescence. inhibition, % at 7.5 µM. 300,000 compounds, 1.1% hits. AID 2717;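 active = mean at 75% or more and at least half the replicates too; inconclusive = mean and replicates disagree; tested in HMLE shEcad cells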;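 note: 0% = median of negative and 100% = median of positive control wells; the first replicate is given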
eIF4H inh retest: second read-out of eIF4H inh, no call of its own (marks repeat the call); inhibition, %; compound at 20 µM; confirmation average;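 mean of two retest wells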
PABP FP inh retest: recorded beside PABP FP inh, whose call it bears; inhibition, %; compound at 20 µM; confirmation repeats;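 mean of two retest wells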
MT1-MMP act inh RFP: also measured in MT1-MMP act inh; calls as there; RFP signal change, %; measured here: RFP expression control read;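 0 = vehicle wells; hits needed this value within 50% of zero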
* marks the source's active call; other numbers are inactive results; i = inactive; ? = inconclusive; . = not tested or not shown; & = joins results of further samples. Some of the compounds tested; count on the stated rates, not on these rows.

SMILES | eIF4H inh | Rce1 inh | HIV Env fusion | PABP FP inh | UUG fidelity | MT1-MMP act inh | MT1-MMP act inh RFP | CSC inhib | others
Cc1cc(C)cc(C(=O)OCC(=O)N2CCCC2)c1 | -11 | i | 0 | -10 | 1 | 1 | 6 | 2
CCOc1ccccc1NC(=O)CN(C)S(=O)(=O)c1ccc2[nH]c(=O)oc2c1 | -17 | i | 8 | -4 | -4 | 7 | 3 | -21
NC(=O)c1ccc(NC(=O)COC(=O)/C=C/c2ccc3c(c2)OCO3)cc1 | -4 | i | -21 | -3 | -18 | 2 | 2 | -10
CS(=O)Cc1cc(Sc2ccccc2)nc(-c2ccncc2)n1 (stereo not drawn) | 5 | i | 19 | -12 | -10 | -3 | 0 | -2
Cc1ccc(Cl)cc1NC(=O)CSc1nnc(C)n1-c1ccccc1 | -5 | i | . | -8 | -17 | 4 | 1 | -9
CCOC(=O)c1c(-c2ccccc2)csc1NC(=O)CSc1nnnn1C | 5 | i | ? | -5 | -9 | 1 | -10 | .
COc1ccc(/C=C2\SC(=O)N(CCNC(=O)C3CSC4(C)CCC(=O)N34)C2=O)cc1 (stereo not drawn) | . | i | 10 | . | -12 | -1 | 4 | -6
CN1CCN(c2ccc(Cl)cc2NC(=O)CN2C(=O)NC(C)(c3ccccc3)C2=O)CC1 (stereo not drawn) | . | i | -3 | . | -19 | 1 | 3 | -3
CCC(=O)Nc1nc2ccccc2n1Cc1ccccc1 | 3 | i | 11 | -6 | -18 | 13 | -2 | 18
CCOC(=O)C(=O)Nc1nnc(CCc2ccccc2)s1 | 2 | i | . | -3 | -20 | 0 | -1 | 8
O=C(CSc1nnc(-c2ccco2)o1)Nc1cccc([N+](=O)[O-])c1 | -3 | i | -24 | -4 | -3 | 2 | 3 | 15
COC(=O)N1CCCCC1c1cc(C(=O)NCc2ccc(F)cc2)no1 (stereo not drawn) | . | . | -4 | . | -8 | -1 | 0 | .
Cc1cc(N2C(=O)C(O)=C(C(=O)c3cc4ccccc4o3)C2c2ccc(Br)cc2)no1 (stereo not drawn) | . | i | 5 | . | -15 | -5 | 1 | 6
COC(=O)c1ccccc1NC(=O)Nc1ccc(Br)cn1 | -1 | i | 0 | 4 | -4 | -1 | 2 | 3
CCOC(=O)C1=C(c2ccccc2)NC(=S)NC1C (stereo not drawn) | -4 | i | -113 | 6 | -6 | -9 | 1 | 12
CC(C)(C)OC(=O)NNC(=O)C12CC3CC(CC(C3)C1)C2 | -8 | i | -2 | 8 | . | 2 | 1 | -8
COc1ccc(Cl)cc1NS(=O)(=O)c1cccc(C(=O)NCC(c2ccco2)N(C)C)c1 (stereo not drawn) | -2 | i | -6 | 5 | 1 | -1 | 0 | .
CCCCNC(=O)c1cc2n(n1)C(C(F)(F)F)CC(c1ccccc1)N2 (stereo not drawn) | -17 | i | 0 | 13 | 6 | 4 | 0 | -7
Cc1nc([N+](=O)[O-])c(Br)n1CC(=O)c1ccc2ccccc2c1 | -6 | i | 9 | -7 | -6 | 6 | -7 | ?
COC(=O)c1ccccc1NS(C)(=O)=O | . | . | -11 | . | -15 | -1 | 0 | 0
O=C(CN1CCN(c2ccc(F)cc2)CC1)NCC1CCCO1 (stereo not drawn) | -4 | i | 10 | -9 | -12 | 1 | 9 | -9
Cc1c(C(=O)OCC(C)(C)CN(C)C)oc2ccccc12 | 6 | i | -27 | 0 | -18 | 2 | 6 | 30
O=C1NC(c2ccccc2)CCO1 (stereo not drawn) | 4 | i | 10 | -6 | -8 | 1 | 2 | -29
CCC(C)Sc1ccc([C@@H]2[C@H]3C(=O)N(C)C(=O)[C@H]3[C@]3(C(=O)OC)CCCN23)cc1 (stereo partly drawn) | . | . | 0 | . | -2 | 8 | -3 | .
COc1ccccc1CCC(=O)OCC(=O)NC1CC1 | . | i | . | . | -19 | 3 | 4 | -2
O=C(CCn1c(=O)oc2ccccc21)n1c(=O)oc2ccccc21 | -1 | i | -41 | -8 | -21 | 2 | 4 | .
Cc1ccc(NC(=O)N2C3CCCC2CC(NC(=O)C(C)(C)C)C3)cc1 (stereo not drawn) | -5 | i | -6 | -11 | -4 | 0 | -2 | -2
COc1nsnc1NS(=O)(=O)c1ccc(NC(=S)NC(=O)c2cccnc2)cc1 | 2 | i | -43 | 20 | -12 | 3 | -2 | 7
COc1ccc(C(N)CCc2ccco2)cc1 (stereo not drawn) | 50* | i | . | 24* | -5 | -15 | 3 | -5 | eIF4H inh retest=82*;PABP FP inh retest=58*
CCOc1ccccc1NC(=O)COC(=O)C1CC(=O)N(c2c(C)cccc2C)C1 (stereo not drawn) | 0 | i | -7 | -6 | -1 | 0 | 2 | -11
CCOc1ccc(Nc2nc(NCC(=O)O)nc(N)c2[N+](=O)[O-])cc1 | 27 | i | -3 | 43 | -13 | -3 | -1 | -13
CCOc1cc(C(=O)Nc2cc3c(cc2N2CCOCC2)n(C)c(=O)n3C)cc(OCC)c1OCC | -18 | i | 2 | -10 | 3 | 3 | 2 | -2
Cc1ccc(S(=O)(=O)C2(C(=O)NC3CCCC3)CC2)cc1 | -6 | i | -37 | -9 | 0 | 3 | 4 | 0
COc1ccc(Cl)cc1NC(=O)CN(C)C(=O)c1cc2ccccc2cc1OC | . | i | 26 | . | -15 | 3 | -7 | -5
CCCCOn1c(C)c(C(C)=O)c2c3no[n+]([O-])c3ccc21 | -7 | i | 15 | 3 | 1 | -10 | -11 | 28
OCC1(Cc2ccccc2)CCCN(Cc2ccc3c(c2)OCCO3)C1 (stereo not drawn) | -8 | i | 2 | -4 | -4 | -6 | -3 | 6
Cc1cc(C)n(CC(O)Cn2ccc3ccccc32)n1 (stereo not drawn) | -8 | . | . | -13 | -15 | 7 | 4 | 4
O=S(=O)(NCc1cccnc1)c1ccccc1 | -8 | i | -13 | -1 | -8 | 0 | 0 | -13
Cc1csc(NC(=O)CSc2ccc([N+](=O)[O-])cn2)n1 | -9 | i | -166 | 0 | -13 | -1 | 0 | 4
S=C(NCc1cccnc1)Nc1cccc2ccccc12 | -1 | i | 12 | 3 | -13 | -3 | 1 | -8
COCCNC(=O)c1ccc(CS(=O)(=O)c2ccccc2)o1 | 3 | i | 16 | 5 | -15 | 5 | 6 | 4
C[C@@H]1CCCCO[C@H](CN(C)S(=O)(=O)c2cccs2)[C@H](C)CN([C@@H](C)CO)C(=O)c2cc(NC(=O)NC3CCCCC3)ccc2O1 | . | . | -11 | . | -13&-5 | -5 | -10 | .
O=c1c2cnn(-c3ccc(F)cc3)c2ncn1Cc1ccc(F)cc1 | 6 | i | . | 17 | -25 | 0 | -14 | -3
COc1ccc(-c2sc3ccc(OC)cc3c2-c2ccc(O)cc2)cc1 | . | . | -9 | . | -4 | 2 | -6 | .
COc1cccc(NC(=O)CN2C(=O)COc3ccc(C)cc32)c1 | 4 | i | -4 | 4 | -25 | 8 | -6 | -15
O=C(NCc1cccnc1)Nc1cccc(F)c1 | 1 | i | 14 | 8 | . | -1 | 6 | -6
CCN=C1S/C(=C\c2cn(CC(=O)NCc3ccco3)c3ccccc23)C(=O)N1CC | -7 | i | 2 | -20 | . | -5 | -7 | .
CC(=O)NC(Cc1ccccc1)C(=O)N1CCN(C(=S)NCC(C)C)CC1 (stereo not drawn) | 0 | i | -10 | -8 | . | 3 | 2 | -7
CC(=O)Nc1nnc(-c2ccc3c(c2)CCCC3)o1 | 2 | i | -17 | -5 | -22 | 6 | 9 | 5
CCOc1ccc(-n2c(Cc3cc(=O)[nH]c(=O)[nH]3)nnc2SC(C)C(=O)OC)cc1 (stereo not drawn) | 0 | i | 8 | 17 | -17 | 0 | 4 | -16
COc1cc(C(=O)Nc2ccc(-c3nnc(-c4ccco4)o3)cc2)cc(OC)c1OC | -2 | i | 10 | -2 | 1 | 12 | -5 | 6
COc1ccc(Nc2cc(C)nc3ncnn23)cc1 | . | . | -8 | . | -21 | 3 | 5 | .
COc1ccc(S(=O)(=O)N(CC(=O)N2CCN(C)CC2)c2ccc(C)cc2)cc1OC | -12 | i | -29 | -4 | -11 | -4 | 0 | .
CCCc1ccc(OCc2ccc(C(=O)N/N=C/c3cccc([N+](=O)[O-])c3)o2)c(OC)c1 | -7 | i | . | 5 | -19 | 3 | 5 | 8
CC(=O)Cc1c(C(=O)O)c(C)nn1-c1ccccc1 | 4 | i | -10 | 14 | . | 1 | 6 | -4
CCOC(=O)C1CCN(C(=O)Cc2cccs2)CC1 | -5 | i | . | -1 | -12 | -1 | 8 | -7
CCc1nc2c(OCC(=O)C(C)(C)C)cccn2c1N(C)C(=O)c1ccco1 | . | . | -3 | . | -5 | 4 | 8 | .
Cc1ncoc1C(=O)Nc1ccc2c(c1)OCCO2 | -8 | i | . | -4 | -38 | 5 | 0 | 14
COc1ccc(C(C(=O)NC2CCCCC2)N(C(=O)CCl)c2cccc(Cl)c2)cc1 (stereo not drawn) | -1 | i | . | 6 | -3 | . | . | 109*
O=C(O)Cc1ccc(S(=O)(=O)Nc2ccccc2C(=O)O)cc1 | 7 | i | 7 | 17 | . | 2 | 1 | -8

(next part)
SMILES | eIF4H inh | Rce1 inh | HIV Env fusion | PABP FP inh | UUG fidelity | MT1-MMP act inh | MT1-MMP act inh RFP | CSC inhib | others
Cc1c(CCO)c(=O)[nH]n1S(=O)(=O)c1ccc(Cl)cc1Cl | -2 | i | 1 | 0 | -10 | -4 | -5 | -3
CCOC(=O)c1nc(C)n(-c2cc(Cl)ccc2Cl)n1 | -6 | i | -109 | 2 | -5 | 3 | 1 | -9
Cc1nc(NCCCn2ccnc2)c2ccccc2n1 | -3 | i | . | 24 | . | 1 | -5 | -2
O=C(Cc1c(F)cccc1Cl)NNC(=O)c1cccs1 | . | . | 2 | . | -4 | -4 | 1 | 1
C[C@@H]1CN([C@H](C)CO)C(=O)c2c(c3ccccc3n2C)-c2ccccc2CO[C@H]1CN(C)Cc1ccccc1 | . | . | 9 | . | 4 | -5 | -5 | .
Cc1ccc(OCc2cc(C(=O)N(C)Cc3cnc4ccccn34)no2)cc1C | -10 | i | 10 | 10 | -25 | -4 | -18 | 5
Nc1n[nH]c(N)c1N=Nc1ccc2c(c1)OCO2 | 0 | i | -17 | -5 | . | 3 | 3 | -2
Cc1ccc(NC(=O)CC2Oc3ccccc3NC2=O)c(C)c1 (stereo not drawn) | -11 | i | 2 | 8 | -6 | 0 | 2 | -9
CCCCN1C(=O)N(c2ccccc2Cl)C(C)(O)CC1(C)C (stereo not drawn) | -4 | i | 9 | 0 | . | 3 | -3 | -14
Cc1ccc(NC2=CC(=O)CC(C)(C)C2)cc1Cl | -2 | i | 7 | 2 | 0 | 3 | 1 | -7
CSc1ccc(S(=O)(=O)Nc2ccc3c(c2)OCCO3)cc1 | -8 | i | 26 | 9 | -2 | 3 | -24 | 5
Cc1cccc(Cn2c(C(C)(C)C)cc3cccnc32)c1 | -12 | i | . | -3 | -32 | -6 | 0 | 4
O=C(Nc1nccs1)c1cc(N2CCOCC2)nc2ccccc12 | 1 | i | . | -5 | -7 | -4 | 7 | 0

Fetched one by one from the entries so far:
SMILES | eIF4H inh | Rce1 inh | HIV Env fusion | PABP FP inh | UUG fidelity | MT1-MMP act inh | MT1-MMP act inh RFP | CSC inhib | others
Cc1ccc(OCc2cc(C(=O)N(C)Cc3cnc4ccccn34)no2)cc1C | -10 | i | 10 | 10 | -25 | -4 | -18 | 5
Cc1c(CCO)c(=O)[nH]n1S(=O)(=O)c1ccc(Cl)cc1Cl | -2 | i | 1 | 0 | -10 | -4 | -5 | -3

From PubChem BioAssay
